# Screens as filed in PubChem BioAssay.
# HIV Env fusion = inhibitors of HIV Env-mediated cell fusion. HeLa-JRFL Env/CEM21 cell fusion, luciferase. inhibition, % at 12.3 µM. hit rate 1.1% among 360,000. AID 651610;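 active means mean replicate inhibition score of at least 50 and every replicate individually at or above 50; inconclusive means only one of the two criteria met; inactive means mean below 50 and not all replicates reaching 50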;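 further: 0% = plate neutral controls and 100% = maraviroc near 300 nM; one replicate is shown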
# Rce1 inhib = yeast Ras-converting enzyme inhibition; Q03530; yeast membranes, quenched prenylated peptide cleavage fluorescence; calls only; hit rate 0.27% among 290,000; AID 2563;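 active means fall in fluorescence gain of 50% or more versus controls, with final raw signal at or below 3038400; inconclusive means same 50% fall but final raw signal above 3038400; inactive means fall in fluorescence gain under 50%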;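 further: plate controls were neutral control wells for no effect and wells lacking membranes for full effect; tested at 10 µM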
# Target sequence (Q03530 whole entry, looked up): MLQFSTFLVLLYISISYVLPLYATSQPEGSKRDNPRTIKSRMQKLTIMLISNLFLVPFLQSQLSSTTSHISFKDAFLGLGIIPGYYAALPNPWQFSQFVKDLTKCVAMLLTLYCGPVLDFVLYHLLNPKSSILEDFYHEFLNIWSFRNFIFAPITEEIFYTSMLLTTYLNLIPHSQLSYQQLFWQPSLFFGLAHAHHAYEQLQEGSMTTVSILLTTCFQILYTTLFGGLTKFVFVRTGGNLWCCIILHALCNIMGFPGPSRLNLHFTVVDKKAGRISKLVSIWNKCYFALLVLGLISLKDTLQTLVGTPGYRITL
# eIF4H inh = inhibitors of RNA binding by human eIF4H. Q15056. eIF4H fluorescence polarization binding assay. inhibition, % at 35 µM. hit rate 0.94% among 290,000;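 active means 50% or more with normal probe brightness, or confirmed in later tests; inconclusive means above 50% with abnormal brightness, or retests that disagree; inactive means below 50% or failed in later tests; about a fifth of its hits are not listed in these tables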;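 further: calls also rest on retests at 20 µM and on dose response follow-up; 0% = protein and probe with vehicle and 100% = probe without protein; strong numbers were not always called active; many hits fall short of the cut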
# PABP polyA inh = blocks human PABP binding to poly(A) RNA | P11940 | fluorescence polarization | inhibition, % at 35 µM | hit rate 1% among 290,000 | AID 2014;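 active means 50% or more with normal probe brightness, or confirmed in later tests; inconclusive means above 50% with abnormal brightness, or retests that disagree; inactive means below 50% or failed in later tests; about a fifth of its hits are not listed in these tables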;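 further: calls also rest on retests at 20 µM and on dose response follow-up; controls were probe without protein and protein plus probe with vehicle; some compounds called inactive have numbers as strong as hits; many hits fall short of the cut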
# Target sequence (P11940 whole entry, looked up): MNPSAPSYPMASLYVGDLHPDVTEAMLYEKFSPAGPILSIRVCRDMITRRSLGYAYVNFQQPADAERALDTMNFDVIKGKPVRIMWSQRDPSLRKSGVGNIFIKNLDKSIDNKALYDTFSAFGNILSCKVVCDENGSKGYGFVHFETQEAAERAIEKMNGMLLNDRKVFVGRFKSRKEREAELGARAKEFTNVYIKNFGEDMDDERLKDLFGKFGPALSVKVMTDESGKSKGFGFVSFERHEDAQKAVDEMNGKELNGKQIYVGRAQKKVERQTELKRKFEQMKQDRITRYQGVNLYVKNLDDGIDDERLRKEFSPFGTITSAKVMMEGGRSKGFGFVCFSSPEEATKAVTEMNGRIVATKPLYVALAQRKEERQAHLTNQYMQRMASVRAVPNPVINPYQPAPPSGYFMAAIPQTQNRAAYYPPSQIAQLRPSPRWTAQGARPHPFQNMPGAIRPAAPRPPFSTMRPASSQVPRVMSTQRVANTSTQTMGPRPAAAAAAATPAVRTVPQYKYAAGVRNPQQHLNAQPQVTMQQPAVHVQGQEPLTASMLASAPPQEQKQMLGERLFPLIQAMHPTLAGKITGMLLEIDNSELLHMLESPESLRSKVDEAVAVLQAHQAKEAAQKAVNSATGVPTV
# Yeast UUG start = yeast start codon fidelity modulation; S. cerevisiae UUG-firefly luciferase reporter, luminescence/redox ratio; activity score, % at 18.7 µM; hit rate 0.13% among 350,000; AID 602363;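 active means replicate mean at a twofold rise or more, about +100% in these data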;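 further: firefly luciferase made from a UUG start codon reports start codon fidelity; reporter light over untreated wells divided by growth signal over untreated wells; some hits fall short of that in this replicate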
# CSC inhib = cancer stem cell inhibition; cancer stem cell-like cells viability, luminescence; inhibition, % at 7.5 µM; hit rate 1.1% among 300,000; AID 2717;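 active means mean at 75% or more and at least half the replicates too; inconclusive means mean and replicates disagree; tested in HMLE shEcad cells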;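 further: 0% = median of negative and 100% = median of positive control wells; the first replicate is given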
# MT1-MMP act inh = MT1-MMP (human) activation inhibition | P50281 | HT1080 RFP-PRO-GFP cells, GFP/RFP ratio fluorescence, overnight; percent of plate control window, DMSO zero | GFP/RFP ratio change, % at 20 µM | hit rate 0.061% among 360,000;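 active means GFP/RFP ratio change of at least 30% with cell ATP level not reduced by more than half and red fluorescence within 50% of control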; further: strong numbers were not always called active
#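 Read-out: GFP/RFP fluorescence ratio; Test system: RFP-PRO-GFP reporter HT1080 cells; Compound dosing: single-point 20 µM compound, 1% DMSO; Times: overnight compound exposure at 37 °C.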
# eIF4H inh retest = also measured in eIF4H inh; calls as there; inhibition, %; compound at 20 µM; confirmation average;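 mean of two retest wells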
# PABP polyA inh retest = second read-out of PABP polyA inh, no call of its own (marks repeat the call); inhibition, %; compound at 20 µM; confirmation repeats;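 mean of two retest wells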
# MT1-MMP act inh RFP = further read-out of MT1-MMP act inh, marked with its call; RFP signal change, %; measured here: RFP expression control read;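 0 = vehicle wells; hits needed this value within 50% of zero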
# The depositor's hits bear a star; i = inactive; ? = inconclusive; / = no result given; & = joins results of further samples.
SMILES,HIV Env fusion,Rce1 inhib,eIF4H inh,PABP polyA inh,Yeast UUG start,CSC inhib,MT1-MMP act inh,MT1-MMP act inh RFP,others
COCC1CCN(Cc2nc(Cc3ccccc3Cl)no2)CC1,-6,i,4,6,/,-11,-2,3,
O=C(NC1CCN(C(=O)N2c3ccccc3Sc3ccccc32)CC1)c1ccco1,17,i,6,1,-33,28,-4,-12,
COc1ccc(NC(=O)Nc2ccc(C)cc2Br)c(OC)c1,-106,/,0,1,-20,/,6,-1,
OCC1OC(n2cnc3c(N4CCCC4)ncnc32)C(O)C1O (stereo not given),16,/,/,/,-1,/,-7,1,
CC(=O)c1ccc2cccc3c2c1N=CN3C,/,i,72*,45,-43,-5,-334,-2,eIF4H inh retest=53*;PABP polyA inh retest=40
CCOC(=O)c1ccc2c(c1)nc(SCC(=O)c1cc3ccccc3o1)n2CC,-12,i,3,3,-13,-5,-40,9,
O=C(CSc1nnc(-c2ccccc2)n1CC1CCCO1)N1CCCC1 (stereo not given),7,i,-1,-4,/,-1,-1,0,
O=C(Cn1nnc2ccccc2c1=O)NCCc1ccc(F)cc1,/,i,-8,-1,/,2,/,/,
CCN(C(=O)CSc1nc2nc(C)cc(C)n2n1)C1CCS(=O)(=O)C1 (stereo not given),-8,i,-8,4,-8,-15,2,1,
CCOC(=O)CNC(=O)N(CCOC)CC1CCCN(C2Cc3ccccc3C2)C1 (stereo not given),14,i,1,-3,8,-10,-2,-1,
COc1ccc(OCC(O)CN(CCO)CC(O)Cn2ccc3ccccc32)cc1 (stereo not given),3,i,-16,12,-4,1,-4,-6,
CCOC(=O)c1nc(Nc2ccc(N3CCC(C)CC3)cc2)c2ccccc2n1,62*,i,8,-6,-21,37,-2,-9,
Cc1ccccc1C(=O)NC(=S)Nc1sc2c(c1C#N)CCCC2,/,i,-3,7,-7,-10,5,1,
CCOC(=O)c1sc(=S)n(-c2ccccc2Cl)c1C,-4,i,-11,-1,-23,7,0,0,
O=C(COc1cccc(F)c1)NNC(=O)c1cccc(-n2cccc2)c1,7,i,/,/,/,-17,-2,5,
COc1ccc(OC)c(CN(CCN2CCOCC2)S(=O)(=O)c2ccc(NC(C)=O)cc2)c1,-3,i,1,7,-19,9,-21,-15,
Cc1cc(=O)c2c(C)nn(-c3ccccc3)c2[nH]1,/,i,-2,2,/,3,-2,5,
O=C1C=CC(n2cc(F)c(=O)[nH]c2=O)O1 (stereo not given),1,/,/,/,-8,/,6,4,
Cc1nn(C)cc1NC(=O)c1ccc(Br)o1,5,i,10,-10,/,-9,3,2,
CC1CC(C)CN(S(=O)(=O)c2ccc(C(=O)Nc3nnc(C4CC4)o3)cc2)C1 (stereo not given),9,i,6,-9,-24,63,-8,-2,
COCCNS(=O)(=O)c1ccc(-c2ccc(C)cc2)cc1,/,i,-11,0,-15,1,3,-12,
CCN(C(=O)CSc1nnc(-c2ccc(F)cc2)n1C)C1CCS(=O)(=O)C1 (stereo not given),6,/,/,/,-25,/,1,1,
O=C(NCc1cccnc1)c1noc2c1CCCCC2,/,i,-11,-2,/,-7,-5,4,
Cc1ccc(C(=O)N(NC2=NS(=O)(=O)c3ccccc32)S(=O)(=O)c2ccc(C)cc2)cc1,/,/,5,6,-9,-7,2,0,
OCCCn1c(CCNc2nc(-c3ccc(F)cc3)cs2)nc2cc(C(F)(F)F)ccc21,72*,i,/,/,-25,52,6,-13,
Cc1ccc(C(O)c2nc3ccccc3n2C(C)C)cc1 (stereo not given),/,i,-2,-4,-3,-7,10,1,
Cc1cccc(C(CC(=O)N2CCCCC2)c2ccccc2)c1O (stereo not given),-10,i,-1,-4,-9,-10,-3,-9,
CCCCNC(=O)CSc1nc2ccccc2c(=O)n1CCNC(C)=O,-9,i,5,1,-20,-6,1,2,
CCN(CC)c1nc(-c2ccccc2)ncc1S(=O)(=O)c1ccc(C)cc1,16,i,-8,5,/,44,-6,-13,
O=C(Nc1ccc(F)cc1F)c1cccnc1,-14,i,-8,2,-3,2,-2,9,
C/C(=N/N1CCN(c2ccccn2)CC1)c1ccc([N+](=O)[O-])cc1,-19,i,-11,0,-16,-5,0,-2,
CCOc1ccccc1CNS(=O)(=O)c1cc(-c2cc(C)no2)ccc1OC,5,i,-15,-10,2,5,-1,0,
c1ccc(-c2ncc3c(ccc4ccccc43)n2)cc1,-416,i,4,-3,-42,/,-6,1,
COc1ccc(CCNC(=O)CCCn2c(SCC#N)nc3ccccc3c2=O)cc1OC,-58,i,0,5,24,-11,-1,0,
Cc1cc(NC(=O)CN2CCN(c3ncccn3)CC2)no1,/,i,5,49,-33,-18,2,5,
COc1ccc(N2CCN(CC(O)COc3ccc(F)cc3)CC2)cc1 (stereo not given),-16,i,-6,-8,-9,14,-2,-2,
Cc1noc(C)c1NC(=O)N(C)C[C@H]1OCCCC[C@@H](C)Oc2ccc(NC(=O)Nc3ccc(F)cc3)cc2C(=O)N([C@@H](C)CO)C[C@H]1C,8,/,/,/,1&-3,/,4,7,
Cc1ccc(C(=O)NC2CC(C)(C)NC(C)(C)C2)c(C)c1,/,i,5,0,-17,-5,1,4,
CCn1cc(C(=O)Nc2ccc(-n3cnnn3)c(OC)c2)c(=O)c2ccc(C)nc21,/,i,-1,0,/,/,/,/,
Cc1cc(/C=c2/sc3nc4ccccc4n3c2=O)c(C)n1-c1ccccn1,5,i,22,21,-34,26,-5,-9,
O=C(CSc1ccc(-c2ccco2)nn1)NC1CCCCC1,-12,i,75,23,/,-10,6,1,eIF4H inh retest=-2;PABP polyA inh retest=-3
CCOc1ccc(OCC)c(-c2c(=O)n(OCc3ccccc3C(=O)OC)c3ccccc3[n+]2[O-])c1,-98,i,-4,-6,7,13,9,4,
COc1ccc(NS(=O)(=O)c2cccc(C(=O)NCC(c3ccc(OC)cc3)N3CCOCC3)c2)cc1 (stereo not given),/,i,-5,-1,0,-19,-6,0,
COc1cc(/C=N/Nc2ccc(C(=O)O)cc2)cc(OC)c1OC,-18,i,9,14,/,-23,17,-6,
O=C(CNC(=O)c1cc2ccccc2o1)NCc1cccs1,/,i,2,-8,-9,-7,3,-1,
COc1ccc(C(C(=O)NCC2CCCO2)N(C(=O)CNC(=O)c2ccco2)c2cc(C)cc(C)c2)cc1OC (stereo not given),-22,i,0,-14,-2,-5,-5,-5,
CCN(CC(=O)Nc1c(F)cccc1F)C(=O)c1ccc(=O)[nH]c1,-2,i,-8,-2,-21,-10,2,1,
COc1ccc(C(=O)N2CCC(n3c(C)nc4cc(F)ccc43)CC2)cc1OC,-3,i,-4,21,/,/,-3,-4,
COc1ccc(Br)cc1C=NNS(=O)(=O)c1ccc(C)cc1,-111,/,/,/,-11,/,1,4,
CCOc1ccc(N(CC(=O)N2CCN(C(=O)CN(c3ccc(OCC)cc3)S(C)(=O)=O)CC2)S(C)(=O)=O)cc1,7,i,-8,-11,5,-14,-4,2,
C1CCCC(N2CCNCC2)CC1,-11,/,-7,2,-10,4,0,4,
CCCn1c(SCC(=O)Nc2nc3c(s2)CCCC3)nc2c1c(=O)n(C)c(=O)n2C,40,i,-5,-7,-9,-9,-2,-15,
Clc1ccccc1CONc1ncnc2nonc12,6,i,2,-10,/,-6,-3,-2,
C#CCOC(=O)C[N+](C)(C)CC=C,-14,i,?,?,-3,-12,-1,1,
O=C(Cc1cccs1)N1CCN=C1SCc1ccccc1F,-3,i,3,-12,/,-10,-3,1,
COc1ccc(CN2CCNC(=O)C2CC(=O)NC2CCCCCC2)cc1C (stereo not given),-3,i,/,/,-21,-12,2,3,
Cc1ccccc1NC(=O)NC1CCCc2ccccc21 (stereo not given),-23,i,-9,-2,-20,3,-11,-6,
CC(=O)c1ccc(OCCCC(=O)NC2=NCCS2)cc1,-160,i,7,0,-9,-5,3,5,
O=C(CC[C@H]1O[C@@H](n2cnc3c(NC(=O)c4ccccc4)ncnc32)[C@H](O)[C@@H]1O)NCC1CCCCC1,-10,/,/,/,-14,/,-1,3,
CCOC(=O)c1ccccc1Nc1cc(C)nc2nc(C)nn12,-7,i,0,0,-9,3,-2,4,
# The results go on:
SMILES,HIV Env fusion,Rce1 inhib,eIF4H inh,PABP polyA inh,Yeast UUG start,CSC inhib,MT1-MMP act inh,MT1-MMP act inh RFP,others
Cc1nn(-c2ccc(F)cc2)c2sc(C(=O)N3CCCCCC3)cc12,/,i,1,7,1,4,-5,-8,
CCCSC1=C(C#N)C2(CCCCC2)C(C#N)=C(N)N1,13,i,0,5,/,-4,2,-8,
N=c1sccn1CC(=O)Nc1cccc(S(N)(=O)=O)c1,-19,i,10,2,-4,5,2,5,
O=c1c2sc(-c3ccccc3)cc2nc2n1CCC2,-82,i,-1,1,-28,3,2,0,
c1ccc2c(C[C@@H]3CNCCN3CC3CCCCC3)cccc2c1,-23,i,/,/,-8,8,3,7,
O=C(NCCc1ccccc1)C1CCCN(c2cnccn2)C1 (stereo not given),3,i,1,-5,5,/,-2,2,
Cc1ccnc(NC(=O)CCC(=O)N(CC(=O)NCc2ccccc2)Cc2ccc(F)cc2)c1,-3,i,-10,3,-9,/,1,1,
C=CCNc1scc(-c2ccccc2)[n+]1CC=C,-12,i,-12,?,/,-12,1,4,
C#CCOCCOCCOCCNc1nc(N2CCN(C(=O)[C@H]([C@@H](C)CC)n3cc([C@@H](N)CC(C)C)nn3)CC2)nc(N2CCN(C(=O)[C@H](Cc3ccc(O)cc3)n3cc([C@@H](N)C(C)CC)nn3)CC2)n1 (stereo not given in full),0,i,51,7,32,/,-4,0,eIF4H inh retest=-12;PABP polyA inh retest=1
COc1ccccc1Cc1c(-c2cccc(Br)c2)nc2ccc(Cl)cn12,-28,/,/,/,-17,/,-6,1,
COc1ccccc1CNC(=O)[C@H](C)NC(=O)[C@@H]1Cc2ccccc2CN1,3,i,-7,-3,-20,-5,2,3,
Clc1cccc(-c2ccc(/C=N/n3cnnc3)o2)c1Cl,/,i,-3,0,-8,-5,-3,-5,
O=C(CC12CC3CC(CC(C3)C1)C2)NCC(=O)N1CCc2ccccc2C1,-40,i,-2,-5,-20,4,5,-1,
CN1C(=O)c2ccccc2CC12c1ccccc1C(=O)N2C (stereo not given),-7,/,/,/,-6,/,6,-2,
COc1ccc(C(=O)OCC(=O)NCC2CCCCC2)cc1F,-24,/,/,/,-4,/,-3,5,
CC(C)CC(N)c1csc(NC(=O)C(c2ccccc2)c2ccccc2)n1 (stereo not given),0,/,/,/,5,/,-8,-9,
Fc1ccc(-c2csc3ncnc(N4CCN(c5ccccc5)CC4)c23)cc1,29,i,-14,-3,-7,/,-4,-8,
COc1ccc(S(=O)(=O)N2CCC(C(=O)Nc3nnc(C)s3)CC2)cc1OC,-13,i,/,/,0,-1,7,1,
O=C(c1cc2c(s1)CCCC2)N1CCN(S(=O)(=O)c2ccccc2C(F)(F)F)CC1,23,i,-15,0,/,-3,-4,-9,

# A section from further up, for reference:
SMILES,HIV Env fusion,Rce1 inhib,eIF4H inh,PABP polyA inh,Yeast UUG start,CSC inhib,MT1-MMP act inh,MT1-MMP act inh RFP,others
CCOC(=O)c1sc(=S)n(-c2ccccc2Cl)c1C,-4,i,-11,-1,-23,7,0,0,
O=C(COc1cccc(F)c1)NNC(=O)c1cccc(-n2cccc2)c1,7,i,/,/,/,-17,-2,5,
COc1ccc(OC)c(CN(CCN2CCOCC2)S(=O)(=O)c2ccc(NC(C)=O)cc2)c1,-3,i,1,7,-19,9,-21,-15,

# Compounds were not picked by outcome; overall some 2.9% were active at least once.
